# Source: PubChem BioAssay (National Center for Advancing Translational Sciences (NCATS))
# Six1-Eya2 blk – qHTS Assay for Inhibitors of the Six1/Eya2 Interaction; Homeobox protein SIX1 (Homo sapiens) + Protein phosphatase EYA2 (Homo sapiens), …; AlphaScreen GST-Six1/His-Eya2 binding, biochemical; hits give low values; control for the full effect not named in the record; activity change, % (concentration not given with the values); 360,000 compounds, 0.56% hits; AID 651725, 2012; in the data active = activity change below about -65%; inconclusive = about -30% to -65%; inactive = above about -30%; further: on the % scale 0 is the no-effect control and ±100 the full control effect
# Target sequence (O00167 whole entry, looked up): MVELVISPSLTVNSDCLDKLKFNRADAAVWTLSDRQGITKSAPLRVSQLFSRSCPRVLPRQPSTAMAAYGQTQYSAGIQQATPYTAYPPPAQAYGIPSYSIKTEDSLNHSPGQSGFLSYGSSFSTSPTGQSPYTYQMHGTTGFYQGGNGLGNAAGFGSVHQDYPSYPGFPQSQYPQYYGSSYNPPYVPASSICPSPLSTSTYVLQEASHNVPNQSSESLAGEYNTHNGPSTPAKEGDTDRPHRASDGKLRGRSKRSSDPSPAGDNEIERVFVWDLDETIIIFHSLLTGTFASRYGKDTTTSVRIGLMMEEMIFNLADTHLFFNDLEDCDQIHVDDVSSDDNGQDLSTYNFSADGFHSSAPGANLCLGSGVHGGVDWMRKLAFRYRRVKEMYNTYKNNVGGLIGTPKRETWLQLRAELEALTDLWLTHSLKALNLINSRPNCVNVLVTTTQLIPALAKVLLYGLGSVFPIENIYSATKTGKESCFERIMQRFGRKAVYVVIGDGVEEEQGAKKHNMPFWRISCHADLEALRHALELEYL
# Target sequence (Q15475 whole entry, looked up): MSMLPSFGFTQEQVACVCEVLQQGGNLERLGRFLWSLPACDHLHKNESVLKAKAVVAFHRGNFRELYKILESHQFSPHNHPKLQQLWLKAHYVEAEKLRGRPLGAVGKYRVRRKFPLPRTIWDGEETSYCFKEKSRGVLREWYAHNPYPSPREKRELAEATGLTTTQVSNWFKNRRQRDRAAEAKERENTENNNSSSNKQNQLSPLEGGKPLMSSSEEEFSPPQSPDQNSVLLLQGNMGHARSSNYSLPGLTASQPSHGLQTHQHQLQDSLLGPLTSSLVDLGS
#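 Compounds are tested against tagged Six1 and Eya2 proteins bridged by glutathione donor and nickel acceptor beads; after a one-hour incubation at 37 °C without light, AlphaScreen emission is recorded.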
# TRPV1 potentiator – HTS Assay for Compounds that Act as Potentiators of the Vanilloid Receptor 1 | TRPV1-expressing cells, Fluo-8 calcium influx, capsaicin EC20 potentiation; host cell line not named in the record; control for the full effect not named in the record | potentiation, % at 8.33 µM | 320,000 compounds, 0.02% hits | Transient receptor potential cation channel subfamily V member 1 (Homo sapiens), Q8NER1 | AID 540277, 2011; active means potentiation above 80%; inconclusive means 30% to 80%; inactive means below 30%; further: 0% is about no effect
#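 Fluo-8 calcium influx in TRPV1-expressing cells, kinetic read (ex 480/em 520 nm). Compound added and read 3 min for agonist activity, followed by capsaicin at EC20 final and 2 min further read for enhancement.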
# PINK1 modulator – A Quantitative High throughput Screen to Identify Chemical Modulators of PINK1 Expression | PINK1 immunofluorescence, high-content cytometry, 24 h | Potency, µM (titrated, usually from 76.6 µM), inactives show at the highest dose activation (PINK1 increase), most hits filed as activators | 410,000 compounds, 0.2% hits | AID 624263, 2012; active = well fitted activation curve with a large enough effect; inconclusive = small, poorly fitted or top-dose-only effect; inactive = flat fitted curve, though single readings scatter; cell line not stated here;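 further: potency means the concentration at half of the fitted maximal effect; % of control where 0% means no effect; nearly all actives have a fitted effect of over 65% in size; a mitochondrial uncoupler was the plate control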
#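 Measures PINK1 amount and localization on or inside mitochondria by immunofluorescence. Stable cells get compounds at 5 concentrations for 24 hours before fixation and staining; CCCP controls included.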
# D2 ag – Beta-Arrestin HTS for Positive Allosteric Modulators of the Human D2 Dopamine Receptor: Agonists; DiscoveRx PathHunter D2 beta-arrestin, luminescence, 90 min; 100% = 57 uM dopamine signal; activation, % (no concentration beside the values); 360,000 compounds, 0.084% hits; in the data active = activation above about 40%; inconclusive = about 15% to 40%; inactive = below about 15%; further: compound concentration not given in the record; the text of the record calls up to 30% inactive
#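 DiscoveRx PathHunter D2 beta-arrestin cells (2,100/well) attached overnight, then compound-stimulated 90 min at 37 C in HBSS/10 mM HEPES/0.1% Tween-20 buffer; beta-galactosidase complementation read by luminescence after 1 h at ambient temperature. Dopamine 57 uM final (EC100) as control.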
# Sfp PPTase inh – qHTS Assay for Inhibitors of Bacillus subtilis Sfp phosphopantetheinyl transferase (PPTase); 4'-phosphopantetheinyl transferase ffp (Bacillus subtilis), Q9F4F7; Biochemical Sfp PPTase activity, qHTS; Potency, µM, inactives show max response, negative = inhibition, usual class: inhibitors; 310,000 compounds, 3.5% hits; active means well fitted inhibition curve with a large enough effect; inconclusive means small, poorly fitted or top-dose-only effect, or another doubt; inactive means no such curve, though single readings can be large or run the other way;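 further: the enzyme is Sfp with the accession as filed and its product quenches rhodamine fluorescence; potency means the concentration at half of the fitted maximal effect; 0% = enzyme reaction without inhibitor and -100% = no enzyme wells; top concentration of the series not given in the record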
#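 Step 1, compound plus 15 nM Sfp-PPTase, 15 min, room temperature. Step 2, add rhodamine-CoA (5 uM) and BHQ-2-YbbR (12.5 uM). Step 3, read 525/598 nm fluorescence at 0 and 30 min.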
# D2 potentiator – Beta-Arrestin HTS for Positive Allosteric Modulators of the Human D2 Dopamine Receptor: Potentiators; DiscoveRx D2 beta-arrestin cells, luminescence, 90 min; 100% = 57 uM dopamine signal; potentiation, % (no concentration beside the values); D(2) dopamine receptor (Homo sapiens), P14416; 360,000 compounds, 0.23% hits; active = potentiation of 50% or more; inconclusive = 30% to 50%; inactive = 30% or less;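 further: compound concentration not given in the record; tested on top of an EC20 dose of dopamine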
#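 PathHunter beta-arrestin assay in DiscoveRx D2 cells. Compounds were added with an EC20 of dopamine (50 nM final) for 90 min at 37 deg C. Luminescence was read 1 h after detection reagent, with 57 uM dopamine as the EC100 control.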
# CtBP-E1A blk – qHTS Assay for Inhibitors of the CtBP/E1A Interaction; activity change, % (no concentration beside the values); AID 651724, 2012; AlphaScreen GST-E1A/His-CtBP binding, 1536-well; hits give low values; control for the full effect not named in the record; CtBP / adenovirus E1A interaction (AlphaScreen); 340,000 compounds, 0.49% hits; in the data active means activity change below about -65%; inconclusive means about -30% to -65%; inactive means above about -30%; further: on the % scale 0 is the no-effect control and ±100 the full control effect
#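 In 5 uL wells, 23 nL compound meets equimolar GST-E1A and His-CtBP (5X stock 125 nM each) for 2 h, 37 °C. Beads (5X, 50 ug/mL) then 1 h, 37 °C, dark.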
# Starred values were filed as active, the others as inactive; ? = inconclusive; . = no result given; & = joins results of further samples; [ ] = remark or other dose.
SMILES,Six1-Eya2 blk,TRPV1 potentiator,PINK1 modulator,D2 ag,Sfp PPTase inh,D2 potentiator,CtBP-E1A blk
Cc1ccccc1-n1nc(C)c2cc(C(=O)N3CCOCC3)sc21,3.9,-16.0,9.0%[38.3 µM],-3.2,12.1%,-24.4,4.7
COCC(C)(C)COS(N)(=O)=O,11.5,-0.9,0.2%,-5.2,20.2%,-3.0,-0.3
CCCCOCCCNC(=O)C[C@@H]1C[C@@]2(C(=O)OC)CCCCC=C2N(Cc2cccc3ccccc23)C1=O,-7.7,.,23.5%,.,.,.,-3.3
COC(=O)COC(=O)c1ccccc1NC(=O)c1ccccc1,2.6,-20.6,0.5%,1.6,-9.7%,3.2,12.4
COC(=O)CNC(=O)CSc1nc2c(sc(=S)n2-c2ccccc2)c(=O)[nH]1,2.8,-20.3,1.8%,3.5,4.0%,-5.2,-1.1
O=C(CCn1cnnn1)N1CCCC(Nc2ccc(F)cc2)C1 (centres undefined),0.9,12.3,2.2%,-2.9,13.3%,-5.5,-4.0
O=C(Nc1ccc(S(=O)(=O)Nc2ncccn2)cc1)C1COc2ccccc2O1 (centres undefined),-2.3,9.2,-3.2%,4.0,10.8%,-1.0,3.3
O=C1CCCC2=C1C1(CCCCC1)N=C(Nc1nc3ccccc3s1)N2,3.9,0.5,-2.4%[38.3 µM],-0.4,6.7%,-6.4,4.9
CCc1nc2c(OCCOc3ccccc3)cccn2c1N(C)C(=O)c1ccc(C)cc1,4.2,.,-0.2%,-3.4,.,-15.2,-11.6
COc1ccc(NS(=O)(=O)c2ccc(O)c(C(=O)OCC(=O)NC3CCCCC3)c2)cc1,-18.2,1.1,4.2%,0.4,19.1%,-0.7,10.1
CSc1nnc(-c2sc3cc(C(F)(F)F)cnc3c2-c2ccccc2)n1C,6.3,-9.3,0.7%,-1.2,6.9%,-3.8,-8.4
Cc1ccc(CN(C)S(=O)(=O)c2c(C)noc2/C=C/N(C)C)cc1,-9.5,-17.7,1.3%,-5.0,3.2%,-15.7,0.7
CN1C(=O)N(CC(=O)Nc2nccs2)C(=O)C12CCCCC2,8.1,-9.2,1.3%,6.5,.,1.1,5.4
CCOC(=O)C1=C(C)N=c2s/c(=C\c3ccc(OCC(=O)O)cc3)c(=O)n2C1c1ccccc1 (centres undefined),-28.7,14.3,-0.7%,-2.8,-1.2%,-4.1,-2.0
O=C(NCc1ccccc1CN1CCCC1)c1ccc(Cl)c(N2CCCC2=O)c1,-9.5,11.3,-1.3%,-5.0,.,-13.4,.
CCCOc1ccc(N2C(=O)CC(N3CCN(C(=O)c4ccco4)CC3)C2=O)cc1 (centres undefined),2.2,-1.8,1.3%[38.3 µM],-1.7,14.6%,-6.4,-1.6
Cc1ccc(NC(=O)CN2C(=O)S/C(=C\c3cc(C)n(C)c3C)C2=O)cc1,-0.5,13.0,.,-2.4,-8.1%,-8.9,8.7
Cc1ccccc1-n1c2nc(=O)n(C)c(=O)c-2cc2ccccc21,4.1,-11.0,2.0%,1.3,14.9%,-4.8,0.1
O=C(CNC(=S)NC(=O)C1CCCCC1)c1ccccc1,5.4,-14.5,16.1%,2.3,0.8%,-11.0,-1.9
O=C(O)CC(NC(=O)CC(c1ccccc1)c1ccccc1)c1cccc([N+](=O)[O-])c1 (centres undefined),2.6,-10.2,1.7%,-3.2,16.2%,0.7,.
CN(CC(=O)Nc1cccc([N+](=O)[O-])c1)S(=O)(=O)c1ccccc1,-4.5,-9.6,-0.7%,-1.9,12.6%,0.5,4.8
O=C(NC1CCCC1)c1cccc(Oc2ccccc2)c1,11.6,-4.9,1.3%,3.0,14.7%,-3.7,18.8
CC1(C)OC(=O)C2=C(C[C@@H](CCOCc3ccccc3)O[C@H]2c2ccc(F)cc2)O1,11.4,.,3.9%,-3.3,.,-1.5,6.4
Cc1ccc(C(=O)N2CCN(c3ccccc3Cl)CC2)cc1[N+](=O)[O-],-9.8,3.5,0.7%,0.9,-2.5%,-7.3,0.0
O=C(SCC(O)C(O)CS)c1cccs1 (centres undefined),2.5,7.3,1.3%,-8.5,-22.7%,-80.7,1.0

# Looked up by compound from the list above:
SMILES,Six1-Eya2 blk,TRPV1 potentiator,PINK1 modulator,D2 ag,Sfp PPTase inh,D2 potentiator,CtBP-E1A blk
CCc1nc2c(OCCOc3ccccc3)cccn2c1N(C)C(=O)c1ccc(C)cc1,4.2,.,-0.2%,-3.4,.,-15.2,-11.6
O=C(O)CC(NC(=O)CC(c1ccccc1)c1ccccc1)c1cccc([N+](=O)[O-])c1 (centres undefined),2.6,-10.2,1.7%,-3.2,16.2%,0.7,.

# The listing continues.
SMILES,Six1-Eya2 blk,TRPV1 potentiator,PINK1 modulator,D2 ag,Sfp PPTase inh,D2 potentiator,CtBP-E1A blk
Cc1sc2ncn(CC(=O)N3CCCCC3)c(=O)c2c1C,-5.2,7.0,0.4%,-1.7,23.3%,-2.3,-1.7
O=C(COC(=O)/C=C/c1cccc([N+](=O)[O-])c1)NCCCN1CCCC1=O,-0.8,3.3,3.6%,-2.0,16.2%,-3.5,1.3
Cc1cc(-c2ccc(C(C)C)c(S(=O)(=O)N3CCN(c4ccccn4)CC3)c2)on1,-18.6,5.9,4.8%,0.4,12.8%,-8.9,.
O=C(NCc1cccnc1)/C(=C/c1ccccc1)NC(=O)c1ccccc1,-0.2,-2.2,-0.3%,2.5,23.2%,0.6,1.7
c1cncc(-c2nc(N3CCCCCC3)c3ccccc3n2)c1,-8.4,-21.2,-0.3%,-4.4,?,9.5,-10.2
COc1ccc2oc3ccc(OC)cc3c(=O)c2c1,5.0,9.8,-1.4%,-4.4,5.0%,-1.7,5.1
COc1cc2cc(OC(C)=O)c3cc4c(cc3c2c(OC)c1OC)OCO4,7.1,.,0.6%,.,.,.,5.3
CSc1nnc(CCCCCCCCc2nnc(SC)o2)o1,-0.4,1.3,-0.1%,7.1,7.6%,4.4,.
Cc1ccc(C)c(Cn2nc(-c3cc(C)ccc3C)ccc2=O)c1,7.3,-16.9,8.3%&4.2%,-0.6,-13.6%,-10.3,-15.9
CC(Sc1cccc[n+]1[O-])C(=O)NC1CCCCC1C (centres undefined),9.3,.,1.8%,-3.2,.,-3.4,1.4
Cc1nonc1OCCNCc1c(C(=O)N(C)C)nc2ccc(Cl)cn12,2.5,6.0,-0.4%,-2.3,11.6%,-1.8,3.2
Nc1nnc(SCC(=O)Nc2ccc(F)c(Cl)c2)n1-c1ccccc1,6.7,6.5,-1.7%,-3.7,13.2%,-9.4,1.7
O=c1oc2ccccc2cc1-c1ccccc1,17.4,-13.5,-0.4%,2.9,15.9%,-5.7,.
CNC(=O)c1cnc(-c2ccccc2)nc1-c1ccccc1,-0.5,?,-0.2%,0.8,8.7%,0.1,6.8
CCOC(=O)N1CCN(C(=O)Cn2nc(C)c3sc4ccccc4c3c2=O)CC1,-6.2,-8.5,-1.3%,-1.4,-12.3%,-10.0,1.6
Clc1ccc(C(c2ccccc2)N2CCN(c3ccccn3)CC2)cc1 (centres undefined),-2.5,13.5,4.2%,-1.5,-1.5%,-4.0,-4.4
COc1ccccc1NC(=O)C1CCN(C(=O)c2ccco2)CC1,-0.8,0.6,0.5%,-0.8,10.5%,1.6,-0.2
Cc1cccc2c1cnn2C(=O)CCC(=O)NCc1ccc(F)cc1,4.3,16.2,-0.7%,1.5,5.6%,-3.3,4.2
O=C1c2ccccc2C(=O)N1OCc1ccccc1,4.4,-2.1,-1.0%,-1.8,-4.3%,-4.8,3.2
CC1CCC(NC(=O)c2ccc3c(c2)OCO3)CC1 (centres undefined),3.0,1.9,-0.4%,-4.6,10.9%,-7.0,0.3
COC(CNC(=O)C1CCCN(S(=O)(=O)c2ccc3c(c2)oc(=O)n3C)C1)OC (centres undefined),1.4,-11.4,-0.2%,1.5,14.3%,1.3,1.2
CCc1ccc2nc(NC(=O)c3ccc(N4C(=O)CCC4=O)cc3)sc2c1,-0.8,-17.7,-0.3%,-0.4,21.6%,-1.8,1.2
COc1ccc(-c2ccc(=O)n(CC(=O)NC3CCc4ccccc43)n2)cc1OC (centres undefined),-2.0,3.8,-0.3%,-18.0,11.8%,-4.1,7.6
CCc1cccc(CC)c1NC(=O)CCCSc1nc2ccccc2s1,4.2,-2.0,2.9%,1.9,15.7%,15.0,0.5
Cc1cc(SCC(=O)c2ccccc2)nc(SCC(=O)c2ccccc2)n1,13.1,-1.5,-4.2%,-5.0,11.4%,-8.9,4.2

# Going on with the list:
SMILES,Six1-Eya2 blk,TRPV1 potentiator,PINK1 modulator,D2 ag,Sfp PPTase inh,D2 potentiator,CtBP-E1A blk
COC(=O)[C@H](C)NC(=O)NC1CCCc2ccccc21 (some centres undefined),14.2,.,1.2%[38.3 µM],-3.3,13.9%,-8.3,8.5
COc1ccc(-c2csc(C(O)c3ccc(F)c(OC)c3)n2)cn1 (centres undefined),-3.3,.,3.3%,-0.8,.,-4.2,3.0
CC1CN(C(=O)c2ccccc2C(=O)c2ncc[nH]2)CC(C)O1 (centres undefined),9.5,12.7,.,-0.7,18.8%,3.8,2.1
O=C(NCC(=O)N1CCN(S(=O)(=O)c2c(F)cccc2F)CC1)c1ccccc1F,4.1,14.3,1.8%,0.8,.,23.3,7.4
Nc1nc2n(n1)C(c1ccco1)CC(c1ccc(Cl)cc1)N2 (centres undefined),-2.7,4.2,0.2%,-3.5,5.9%,8.2,-0.7
CCCOC(=O)c1ccc(NC(=O)c2cccc(S(=O)(=O)N3CCN(C(C)=O)CC3)c2)cc1,1.6,-3.6,2.1%,1.9,21.3%,8.3,0.0
Cn1nc(C(F)(F)F)c(/C=N/OC(=O)c2ccccc2Cl)c1SCc1ccc(Cl)cc1,8.2,.,-1.1%,2.1,-8.9%,-11.7,4.1
O=C(NC1CCCCC1)N1CCN(C2CCCCC2)CC1,?,-3.1,5.1%[38.3 µM],-2.8,11.1%,-11.0,16.5
